High-throughput results deposited in PubChem by several laboratories.
FGF22 binding – FGF22 (human) thermal shift binding; Q9HCT0; recombinant FGF22 thermal shift, SYPRO orange fluorescence; percent of sucrose octasulfate shift, DMSO zero; calls only at 9.99 µM; hit rate 1.5% among 340,000; AID 651658;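 active = melting point raised past a set limit in the mean and every replicate; three in four hits are not shown here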
MLL AF4-AF9 inh – inhibitors of human MLL-AF4/AF9 interaction; inhibition, % at 10 µM; AID 651704; AlphaScreen, biotin-AF4 peptide binding to FLAG-AF9; P42568; hit rate 0.47% among 350,000;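 active = every replicate reaching a set inhibition limit, whatever the replicate mean, cut at about 25% in these data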;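 note: 0% = plate neutral control median and 100% = total signal loss; the record names both 10 and 1 µM as test concentration; the first replicate is given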
Target sequence (P42568 whole entry, looked up): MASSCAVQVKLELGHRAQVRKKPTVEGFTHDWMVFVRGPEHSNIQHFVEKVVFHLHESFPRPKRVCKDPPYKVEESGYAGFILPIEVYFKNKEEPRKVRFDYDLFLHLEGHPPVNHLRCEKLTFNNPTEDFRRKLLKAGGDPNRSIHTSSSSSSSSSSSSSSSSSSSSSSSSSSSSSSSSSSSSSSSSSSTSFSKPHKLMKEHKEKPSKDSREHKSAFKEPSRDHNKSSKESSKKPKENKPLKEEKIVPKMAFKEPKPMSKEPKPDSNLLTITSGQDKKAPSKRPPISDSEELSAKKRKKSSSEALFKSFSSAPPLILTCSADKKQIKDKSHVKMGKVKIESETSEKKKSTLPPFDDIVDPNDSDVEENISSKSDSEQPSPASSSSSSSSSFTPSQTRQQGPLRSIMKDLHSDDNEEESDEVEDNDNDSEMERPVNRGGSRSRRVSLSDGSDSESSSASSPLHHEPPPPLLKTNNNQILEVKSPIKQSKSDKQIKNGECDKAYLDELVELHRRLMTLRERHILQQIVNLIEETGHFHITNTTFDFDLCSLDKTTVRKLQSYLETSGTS
Vif TR-FRET – inhibitors of Vif binding to APOBEC3G peptide, primary screen, biochemical, TR-FRET, GST-Vif 1-94, biotin-A3G peptide, dose response retest (AID 1117319) | TR-FRET GST-Vif / biotin-A3G peptide binding; higher % means a stronger effect; test concentration not given here; strong numbers were not always called active | one-dose inhibition, %; IC50 in µM for titrated hits | hit rate 0.57% among 260,000;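 active = above the screen mean plus three standard deviations and confirmed in dose response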;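 note: Vif residues 1-94 fused to GST binding biotinylated APOBEC3G peptide 110-148; 0% = full assay without inhibitor and 100% = GST in place of GST-Vif; retest series ran down from 100 µM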
Ecoli growth – blocks Escherichia coli growth. hit rate 0.21% among 330,000. OD600, 23 h; hits give low values. OD600 absorbance (no concentration beside the values);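 active = OD600 absorbance below the run mean of sample wells minus 3.6 SD, in any replicate, cut at about 0.56 in these data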;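 note: stock transfer was 300 nL into about 60 µL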
Ecoli rRNA inh – inhibits bacterial ribosomal RNA function over humanized ribosomes; E. coli WT GFP vs humanized-ribosome RFP mutants, fluorescence, 24 h; hits give low values; DMSO median 0, no signal -100; GFP signal change (wild-type ribosome), % (concentration not given with the values); hit rate 1.6% among 350,000;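 active = significant combined selectivity score with lowered wild-type GFP, culture density cut under 30%, mutant RFP and density less affected; inactive = any of these conditions unmet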; note: one replicate is shown; some compounds called inactive have numbers as strong as hits
HNF4A DNA FP – change in binding of human HNF4 alpha to DNA. HNF4a-FITC DNA binding, fluorescence polarization, 1 h. hit rate 0.3% among 360,000. P41235. activity change, % at 10 µM; in the data active = activity change above about 30%, passing the limit was not always enough;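 note: controls were the assay level and a saturating level of protein; the project sought stronger binding though the title names inhibitors; some compounds called inactive have numbers as strong as hits; positive values seem to mean higher polarization but the record does not say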
Target sequence (P41235 whole entry, looked up): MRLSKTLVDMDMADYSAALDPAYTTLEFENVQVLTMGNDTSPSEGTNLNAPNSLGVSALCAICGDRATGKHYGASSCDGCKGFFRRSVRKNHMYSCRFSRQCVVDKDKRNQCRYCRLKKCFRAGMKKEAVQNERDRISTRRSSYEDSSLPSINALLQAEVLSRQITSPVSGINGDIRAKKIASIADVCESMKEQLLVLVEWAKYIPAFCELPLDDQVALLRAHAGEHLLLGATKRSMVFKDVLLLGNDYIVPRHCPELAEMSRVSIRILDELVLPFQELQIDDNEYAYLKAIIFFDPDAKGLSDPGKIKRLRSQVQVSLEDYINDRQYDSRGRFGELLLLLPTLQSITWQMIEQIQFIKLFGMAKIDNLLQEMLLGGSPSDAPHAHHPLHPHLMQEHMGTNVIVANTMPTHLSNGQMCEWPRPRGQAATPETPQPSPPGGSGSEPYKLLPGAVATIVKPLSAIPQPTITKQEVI
ALR inh – inhibitors of human sulfhydryl oxidase ALR; P55789; purified ALR, DTT oxidation, H2O2 HRP-luminol luminescence; inhibition, % (test concentration not listed); hit rate 3.8% among 290,000; AID 485317;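 active = mean and each replicate at 75% or more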;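 note: stock transfer was 7.5 nL into about 7.5 µL; 0% = neutral wells and 100% = wells with inactivated enzyme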
Ecoli rRNA inh OD600 – also measured in Ecoli rRNA inh; calls as there; OD600 change, %; measured here: OD600 growth;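 optical density of the mix in the first replicate; 0 = DMSO median and -100 = no signal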
Ecoli rRNA inh RFP – further read-out of Ecoli rRNA inh, marked with its call; RFP signal change, %; measured here: RFP humanized mutant strains;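 first replicate; 0 = DMSO median and -100 = no signal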
The depositor's hits bear a star; i = inactive; x = no result given.

HNF4A DNA FP	ALR inh	Vif TR-FRET	Ecoli growth	MLL AF4-AF9 inh	FGF22 binding	Ecoli rRNA inh OD600	Ecoli rRNA inh	Ecoli rRNA inh RFP	canonical_smiles
-2.3	x	x	0.7	-8.9	i	-10	-3	-4.9	CCCCCCCNC(=O)C1(CC2CC(c3cccc(Br)c3)=NO2)CCN(C(=O)C2(C)CC2)CC1 (centres undefined)
-3.7	-5	x	0.63	7.4	i	-78	-56	-15	Cc1ccc(C(C)C)c(OCCNCCc2ccccc2)c1
x	x	x	x	-0.4	i	5	2	-0.6	CC(C)NC(=O)N(C)C[C@@H]1OCCCC[C@@H](C)Oc2ccc(NC(=O)Nc3ccc(C(F)(F)F)cc3)cc2C(=O)N([C@H](C)CO)C[C@@H]1C
-3.0	1	6%	0.69	x	x	x	x	x	CC(C)C(c1nnnn1Cc1ccc(F)cc1)N1CCSCC1 (centres undefined)
x	x	x	x	-0.9	i	-2	4	-2.0	CNC[C@H]1Oc2ccc(NS(=O)(=O)c3ccccc3)cc2C(=O)N([C@H](C)CO)C[C@H]1C
-1.9	-4	-2%	0.72	x	x	x	x	x	O=C(Nc1ccc(Cl)cc1)N1CCc2[nH]c3ccccc3c2C1
0.3	99*	x	0.67	0.6	i	2	2	0.8	COC(=O)c1ccc(NC(=O)CSc2nncn2-c2ccccn2)cc1
0.0	x	4%	x	-1.1	i	x	x	x	CC(Oc1ccc(Cl)cc1)C(=O)Nc1cccc(S(=O)(=O)N2CCCC2)c1 (centres undefined)
1.0	4	x	0.74	-1.4	i	15	18	-2.1	Cc1cc(C(=O)OCC(=O)NCc2ccccc2Cl)c(C)o1
-6.5	-3	0%	0.67	-47	i	6	5	-0.1	Cc1oc(C(C)(C)C)cc1C(=O)NCC(=O)NCC(=O)O
1.2	-4	-3%	0.68	13	i	-4	2	2.3	Fc1cccc(Cl)c1Cc1noc(/C=C/c2ccccc2)n1
5.3	2	-4%	0.64	-1.7	i	-5	-6	1.6	Cc1noc(C(=O)Nc2cc(Cl)ccc2O)c1Cl
0.9	3	2%	0.67	x	x	x	x	x	CCn1nnnc1-c1ccc(OC)c(S(=O)(=O)Nc2ccc(C)c(C)c2)c1
0.2	0	5%	0.6	1.0	i	-5	-5	5.7	Cc1ccc(NC(=O)CSc2n[nH]c(-c3cccnc3)n2)cc1Cl
x	x	x	x	-1.2	i	4	2	0.2	C[C@@H]1CN([C@H](C)CO)C(=O)Cc2cc(NC(=O)CCC(F)(F)F)ccc2O[C@H]1CN(C)C(=O)NC1CCCCC1
-1.1	-1	-6%	0.69	3.5	i	12	5	-2.9	COc1ccccc1C(=O)NCCC(=O)NCc1cccnc1
0.9	-7	18%	0.77	x	x	x	x	x	Cc1sc2nc(SCC(=O)C(C)(C)C)n(Cc3ccco3)c(=O)c2c1C
x	x	x	x	6.6	i	8	3	7.7	Cc1noc(C)c1S(=O)(=O)Nc1ccc2c(c1)CC(=O)N([C@H](C)CO)C[C@H](C)[C@H](CN(C)Cc1ccc(-c3ccccc3)cc1)O2
4.7	-4	x	0.64	1.8	i	8	4	-0.4	Cc1ccc(C)c(NC(=O)c2ccc3nccnc3c2)c1
3.1	-3	8%	0.67	-4.4	i	15	4	-1.1	NS(=O)(=O)c1ccc(NC(=O)COC(=O)CN2C(=O)C3CC=CCC3C2=O)cc1 (centres undefined)
-0.8	-4	-8%	0.68	-2.8	i	3	6	1.1	CC(Sc1nnc(C2CC2)n1C1CC1)C(=O)Nc1cccc(S(=O)(=O)N(C)C)c1 (centres undefined)
4.8	-7	x	0.71	-2.1	i	6	15	-1.7	CCc1ccc(-n2cc(-c3ccc([N+](=O)[O-])cc3)[nH]c2=S)cc1
x	x	x	x	2.0	i	-2	-2	1.2	O=C([C@@H]1[C@@H](CO)[C@@H]2Cn3c(ccc(C4=CCCC4)c3=O)[C@@H]2N1CC1CC1)N1CCCCC1
1.1	8	x	0.7	-2.3	i	2	2	4.0	CCOC(=O)c1ccccc1NC(=O)C1CC(=O)N(c2ccccc2)C1 (centres undefined)
1.2	-2	-2%	0.67	x	x	0	7	4.8	Cc1ccc(C(=O)NC2CCS(=O)(=O)C2)cc1S(=O)(=O)N1CCCCC1 (centres undefined)
-0.4	-3	-3%	0.73	2.6	i	3	4	-0.4	CCc1ccc2c(c1)C1(SC(NC(C)=O)=NN1C(C)=O)C(=O)N2CC (centres undefined)
1.9	x	x	0.69	-3.4	i	-2	-5	-0.1	CCCCCCc1nnc(NC(=O)c2ccco2)s1
-1.2	x	-4%	0.68	2.3	i	x	x	x	COc1ccccc1Nc1nnc(SC(C)C(=O)NC2CC2)s1 (centres undefined)
-2.9	-2	2%	0.65	2.7	i	12	9	5.4	CC(=O)Nc1ccc(C2(c3ccc(NC(C)=O)cc3)NC(=O)c3ccccc32)cc1
1.7	x	x	x	-0.7	i	3	6	-1.5	O=C(O)[C@H]1CCCN1S(=O)(=O)c1cccc2cccnc12
1.8	-5	3%	0.7	x	x	x	x	x	CCOc1cccc(OCCOCCN(C)C)c1
x	x	x	x	7.5	i	1	1	1.9	C[C@H](CO)N1C[C@H](C)[C@H](CN(C)Cc2ccccc2)Oc2cc(/C=C/c3ccccc3)ccc2S1(=O)=O
x	x	x	x	-3.5	i	4	2	-5.1	COCC(=O)N(C)C[C@H]1Oc2cc(Br)ccc2S(=O)(=O)N([C@@H](C)CO)C[C@@H]1C
5.7	88*	2%	0.73	-0.8	i	-9	-15	-2.8	O=C(O)/C=C/C(=O)Nc1ccccc1C(=O)OCC(=O)c1ccc2c(c1)OCCO2
1.0	8	x	0.67	-1.7	i	13	3	-3.4	CC(C)C[C@H](NC(=O)C1CCN(C(=O)[C@H](Cc2ccccc2)NC(=O)OC(C)(C)C)CC1)C(=O)O
-2.4	-2	x	0.69	-0.3	i	3	8	-1.7	O=C(COc1coc(CN2CCc3ccccc32)cc1=O)Nc1ccc([N+](=O)[O-])cc1
-12	-10	x	0.68	6.9	i	17	14	3.5	Cc1cc(O)c(CN(C)C)c2c1C(=O)/C(=C/c1ccco1)O2
x	x	x	x	-1.9	i	-3	-5	-1.9	C[C@@H]1CN([C@H](C)CO)C(=O)c2cc(-c3cccc(C(=O)N(C)C)c3)cnc2O[C@H]1CN(C)S(=O)(=O)c1ccccc1
x	x	x	x	-3.1	i	3	2	0.6	CCC(=O)N[C@@H]1CC[C@@H](CCn2cc(C3CC3)nn2)O[C@@H]1CO
-0.9	3	6%	0.64	1.4	i	-9	-2	0.0	COCc1ccc(C(=O)NC2CC(C)(C)Cc3c2cnn3-c2ccc(C)cc2)o1 (centres undefined)
-2.5	-5	-2%	0.61	3.4	i	7	14	8.0	Cc1cc(-c2ccc(C)c(S(=O)(=O)NCC3CCN(Cc4ccc(F)cc4)CC3)c2)on1
8.5	x	x	0.71	0.5	i	11	6	-0.5	CCc1nc(CNC(=O)C2CCC(=O)N(Cc3ccccc3F)C2)no1 (centres undefined)
1.4	2	-7%	0.66	x	x	x	x	x	O=C(Cc1csc(-c2ccccc2)n1)Nc1ccc(C(F)(F)F)cc1
2.9	-14	x	0.73	0.2	i	11	-1	-1.4	O=C(CCN1C(=O)/C(=C/c2ccc(Cl)cc2)SC1=S)NC1C=CS(=O)(=O)C1 (centres undefined)
5.3	-2	x	0.65	3.2	i	9	8	1.6	NC(=O)COC(=O)CNC(=O)c1sc2ccccc2c1Cl
0.7	x	x	x	-2.0	i	12	6	-10	CCOC(=O)C1(C)CCN1C(=O)c1ccccc1C(F)(F)F (centres undefined)
-0.9	-12	23%	0.69	x	x	x	x	x	O=C(c1ccco1)N1CCn2c1nc1ccccc12
0.9	99*	8%	x	x	x	x	x	x	C=C(C)CN=c1scc(C)n1/N=C/c1ccco1
-7.2	99*	15µM*	x	-0.6	i	5	-17	3.5	C=CCN=c1scc(C)n1/N=C/c1ccc(O)c(O)c1
5.3	11	25%	0.71	6.6	i	-5	-2	-1.5	COc1ccc2oc(C(=O)Nc3ccc(N4CCOCC4)cc3)c(C)c2c1
-0.3	x	29%	0.64	x	x	x	x	x	CCn1nccc1C(=O)Nc1ccc(Cl)c(Cl)c1
1.0	-2	1%	0.68	1.5	i	-2	9	0.8	COC(CN1CCc2c(C)nc3c(C#N)cnn3c21)OC
x	x	x	x	0.1	i	9	2	1.8	CC(C)NC(=O)Nc1ccc2c(c1)C(=O)N([C@H](C)CO)C[C@@H](C)[C@@H](CN(C)CC1CCCCC1)OCCCC[C@@H](C)O2
x	x	x	x	3.1	i	7	3	-1.1	CC=Cc1ccc2n(c1=O)C[C@H]1[C@H](CO)[C@@H](C(=O)N3CCOCC3)[C@@H]2N1CC1CC1 (mixture of isomers)
1.1	-7	4%	0.62	x	x	x	x	x	COc1ccccc1NC(=O)Cn1cnc2sc(C)c(S(=O)(=O)N3CCCCC3)c2c1=O
0.2	2	12%	0.67	4.7	i	4	13	5.2	CCOC(=O)c1c(-c2ccc(C)cc2)csc1NC1=NS(=O)(=O)c2ccccc21
x	x	x	x	-1.1	i	-2	-1	1.5	C[C@@H]1CN([C@@H](C)CO)C(=O)c2cccc(NC(=O)c3nc4ccccc4s3)c2O[C@H]1CN(C)CC1CC1
-1.2	-4	4%	0.64	0.6	i	9	12	-1.5	CCC(C)(C)NC(=O)CN(C(=O)CCC(=O)Nc1cc(C)ccn1)c1ccc2c(c1)OCCO2
-0.2	-1	1%	x	x	x	x	x	x	Cn1nnnc1SCC(=O)N(C1CCCCC1)C1CCCCC1
0.7	x	-1%	0.68	-3.6	i	-8	-11	-2.1	Cc1cc(NCCCO)n2nc(-c3cccs3)cc2n1

By substructure: the entries above with a CF3 group.
HNF4A DNA FP	ALR inh	Vif TR-FRET	Ecoli growth	MLL AF4-AF9 inh	FGF22 binding	Ecoli rRNA inh OD600	Ecoli rRNA inh	Ecoli rRNA inh RFP	canonical_smiles
x	x	x	x	-0.4	i	5	2	-0.6	CC(C)NC(=O)N(C)C[C@@H]1OCCCC[C@@H](C)Oc2ccc(NC(=O)Nc3ccc(C(F)(F)F)cc3)cc2C(=O)N([C@H](C)CO)C[C@@H]1C
x	x	x	x	-1.2	i	4	2	0.2	C[C@@H]1CN([C@H](C)CO)C(=O)Cc2cc(NC(=O)CCC(F)(F)F)ccc2O[C@H]1CN(C)C(=O)NC1CCCCC1
1.4	2	-7%	0.66	x	x	x	x	x	O=C(Cc1csc(-c2ccccc2)n1)Nc1ccc(C(F)(F)F)cc1
0.7	x	x	x	-2.0	i	12	6	-10	CCOC(=O)C1(C)CCN1C(=O)c1ccccc1C(F)(F)F (centres undefined)

(list continues)
HNF4A DNA FP	ALR inh	Vif TR-FRET	Ecoli growth	MLL AF4-AF9 inh	FGF22 binding	Ecoli rRNA inh OD600	Ecoli rRNA inh	Ecoli rRNA inh RFP	canonical_smiles
x	x	x	x	5.4	i	-67	-55	-11	O=S(=O)(Cc1ccccc1)N1CCCCN2[C@H](CO)[C@@H](c3ccc(C#Cc4ccccc4)cc3)[C@H]2C1
-0.9	-5	-3%	0.74	0.0	i	7	13	1.2	CCOC(=O)C1CCN(c2nc3ccccc3n2CC(=O)c2ccccc2)CC1
0.5	-1	1%	0.66	-8.6	i	-67	-32	2.6	CCC(CC)C(=O)Nc1nnc(S(=O)(=O)Nc2ccc(OC)cc2)s1
-0.9	0	-1%	0.72	-3.8	i	15	4	12	O=C(O)/C(=C\c1cn(-c2ccccc2)nc1-c1cccnc1)NC(=O)c1ccccc1
5.4	-2	-2%	0.7	x	x	x	x	x	CCCOc1ccc(C(=O)Nc2ccc(C)cc2[N+](=O)[O-])cc1
-2.0	x	x	0.69	-3.1	i	-30	-17	-0.1	Cc1ccc(NC(=O)C2CCN(C(=O)c3ccc(Cl)cc3)CC2)nc1
3.5	-10	5%	0.74	x	x	x	x	x	COc1cc(C)c(C(N)=O)c(OC)n1

An excerpt; count on the stated rates, not on these rows.
